Vaccinia inh – Vaccinia orthopox stage-specific inhibition. Vaccinia-infected cells, mCherry/Venus stage reporter fluorescence; stronger effect = lower value; some inactives read as strong as hits. activity change (mCherry), % (no concentration beside the values). actives 0.01% (n = 89,000). AID 1053133;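 active = mCherry past -33% and 40 or more points under the early reporter, replicates agreeing; inconclusive = past -33% without that gap or agreement; tested in A549 cells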;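 also: scaled between vehicle wells and reference inhibitor wells; 23 nL library stock went into each well; one replicate is shown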
Vaccinia inh Venus – second read-out of Vaccinia inh, no call of its own (marks repeat the call); activity change (Venus), %; measured here: Venus reporter, other viral stage;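 negative = less Venus signal; first of two replicates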
Active calls of the source: *; ? = inconclusive; . = no result given. These rows are one share of the data, so the mix of outcomes need not match the whole.

| Molecule | Vaccinia inh | Vaccinia inh Venus |
| --- | --- | --- |
| C[C@@H]1CN([C@@H](C)CO)S(=O)(=O)c2ccc(C3=CCCC3)cc2O[C@@H]1CN(C)Cc1cccnc1 | -7.9 | -15.8 |
| Cc1nc(N2[C@@H](C#N)[C@@H](c3ccccc3)[C@@H]2CO)sc1C | 9.9 | 2.3 |
| CCC(=O)N(C)C[C@@H]1Oc2cc(C#CC(C)C)ccc2S(=O)(=O)N([C@H](C)CO)C[C@@H]1C | 1.9 | -0.3 |
| CNC(=O)C[C@@H]1CC[C@@H]2[C@H](COc3ccc(NS(=O)(=O)c4cccc(F)c4)cc3C(=O)N2C)O1 | 3.0 | 4.6 |
| C[C@H]1CN([C@@H](C)CO)C(=O)Cc2cc(NC(=O)C3CCCCC3)ccc2O[C@H]1CN(C)Cc1ccc(C(F)(F)F)cc1 | -17.8 | -11.6 |
| CCS(=O)(=O)Nc1ccc2c(c1)C(=O)N(C)[C@H]1CC[C@@H](CC(=O)N3CCOCC3)O[C@H]1CO2 | -3.6 | -6.1 |
| C[C@H](CO)N1C[C@H](C)[C@@H](CN(C)C(=O)CC2CC2)Oc2cc(C#C[C@@H](C)O)ccc2S1(=O)=O | -2.7 | -3.2 |
| CO[C@H]1CN(C)C(=O)c2cc(NC(=O)c3cnccn3)ccc2OC[C@@H](C)N(CCc2ccccc2)C[C@H]1C | 1.8 | -1.0 |
| CN1C(=O)c2cc(NS(=O)(=O)c3ccc(F)cc3)ccc2OC[C@H]2O[C@H](CC(=O)O)CC[C@@H]21 | 4.8 | 10.7 |
| COCC#Cc1ccc2c(c1)O[C@H](CN(C)S(=O)(=O)c1ccc(C)cc1)[C@H](C)CN([C@H](C)CO)S2(=O)=O | -34.9 | -22.7 |
| COC(=O)C[C@H]1CC[C@H]2[C@H](COc3ccc(NC(=O)Nc4cccc(F)c4)cc3C(=O)N2C)O1 | -0.4 | 0.0 |
| COCC(=O)Nc1ccc2c(c1)C(=O)N(C)C[C@H](OC)[C@H](C)CN(C(=O)C1CCCC1)[C@H](C)CO2 | -0.2 | 0.1 |
| Cc1noc(C)c1S(=O)(=O)Nc1cccc2c1O[C@H](CN(C)C(=O)NC1CCCCC1)[C@H](C)CN([C@@H](C)CO)C2=O | 24.9 | 19.5 |
| C[C@@H]1CN([C@H](C)CO)S(=O)(=O)c2ccc(-c3ccncc3)cc2O[C@H]1CN(C)Cc1cccnc1 | 3.1 | 1.4 |
| CCc1csc(N2[C@H](CO)[C@H](c3ccc(-c4cccc(F)c4)cc3)[C@@H]2C#N)n1 | -1.4 | -3.1 |
| CO[C@@H]1CN(C)C(=O)c2ccc(NC(=O)c3cnccn3)cc2OC[C@@H](C)N(C(C)=O)C[C@@H]1C | -4.1 | -2.5 |
| CN(C)CC#Cc1ccc([C@@H]2[C@H](CO)N3CCCCN(C(=O)NC4CCCC4)C[C@@H]23)cc1 | -0.8 | -8.6 |
| O=C(Nc1ccccc1F)N[C@H]1CC[C@@H](CCNS(=O)(=O)c2ccc(F)cc2)O[C@H]1CO | -19.3 | -19.3 |
| CO[C@H]1CN(C)C(=O)c2ccc(NC(C)=O)cc2OC[C@H](C)N(C(=O)C2CCOCC2)C[C@@H]1C | -1.6 | 3.6 |
| CN1C(=O)c2cc(NC(=O)Nc3cccc(Cl)c3)ccc2OC[C@@H]2O[C@@H](CC(=O)NCCc3ccncc3)CC[C@H]21 | 12.1 | 0.0 |
| O=C(Nc1ccc2c(c1)[C@@H]1C[C@H](CC(=O)N3CCc4ccccc4C3)O[C@H](CO)[C@@H]1O2)c1ccc2c(c1)OCO2 | -20.7 | -16.3 |
| CCCc1cn(CC[C@H]2CC[C@H](NC(=O)C3CCCC3)[C@H](CO)O2)nn1 | -7.9 | 9.2 |
| Cc1ccccc1CN(C)C[C@H]1OCc2cnnn2CCCC(=O)N([C@@H](C)CO)C[C@H]1C | 0.1 | -1.6 |
| CO[C@H]1CN(C)C(=O)c2ccc(NS(=O)(=O)c3cn(C)cn3)cc2OC[C@@H](C)N(Cc2cccc(F)c2)C[C@H]1C | 3.8 | -1.0 |
| O=C(Cc1ccccc1)N1CC(=O)N2[C@H](CO)[C@@H](c3ccc(C#CCc4ccccc4)cc3)[C@H]2C1 | 24.2 | 9.4 |
| COc1ccccc1S(=O)(=O)N(C)C[C@@H]1OCc2ccccc2-c2ccccc2C(=O)N([C@@H](C)CO)C[C@@H]1C | 7.6 | 2.8 |
| O=C(C[C@@H]1CC[C@H](NC(=O)NC2CCCCC2)[C@H](CO)O1)NCc1ccc(Cl)cc1 | -3.7 | 7.2 |
| COc1cccc(CN(C)C[C@@H]2OCc3cn(nn3)CCCC(=O)N([C@H](C)CO)C[C@@H]2C)c1 | 3.9 | -2.6 |
| C[C@H]1CN([C@@H](C)CO)C(=O)c2cc(NC(=O)NC3CCCCC3)ccc2O[C@H]1CN(C)Cc1ccccc1 | 7.4 | 11.6 |
| C[C@@H]1CCCCO[C@H](CN(C)C(=O)Cc2ccccc2)[C@@H](C)CN([C@H](C)CO)C(=O)c2cc(NC(=O)c3ccncc3)ccc2O1 | 22.1 | 3.7 |
| C[C@@H](NC(=O)[C@@H]1[C@@H](CO)[C@@H]2Cn3c(cccc3=O)[C@@H]2N1S(C)(=O)=O)c1ccccc1 | 13.9 | 8.9 |
| COCC#Cc1ccc([C@@H]2[C@H](CO)N3CCCCN(S(=O)(=O)c4ccccc4C)C[C@@H]23)cc1 | ? | . |
| C[C@H](CO)N1C[C@H](C)[C@H](CN(C)C(=O)Nc2ccc3c(c2)OCO3)Oc2ccc(NS(C)(=O)=O)cc2C1=O | 31.4 | 10.6 |
| C[C@H]1CN([C@@H](C)CO)C(=O)c2cccc(NS(=O)(=O)c3cccs3)c2O[C@@H]1CN(C)Cc1ccc(C(F)(F)F)cc1 | -9.7 | 1.2 |
| O=C(NCc1ccccc1)[C@@H]1[C@@H](CO)[C@@H]2Cn3c(ccc(-c4cccc(F)c4)c3=O)[C@H]1N2 | -0.8 | 9.7 |
| COc1ccc(S(=O)(=O)N(C)C[C@H]2Oc3ccc(NC(=O)CCCCCC(=O)Nc4ccccc4N)cc3C(=O)N([C@@H](C)CO)C[C@H]2C)cc1 | 2.7 | -8.4 |
| C[C@@H]1CCCCO[C@@H](CN(C)C(=O)Nc2ccc(C(F)(F)F)cc2)[C@@H](C)CN([C@H](C)CO)C(=O)c2cc(NC(=O)NC3CCCCC3)ccc2O1 | 0.4 | 2.4 |
| NC(=O)NCC#Cc1ccc2c(c1)[C@]1(C(=O)N2)[C@H](c2ccc(O)cc2)N2[C@H](c3ccccc3)[C@H](c3ccccc3)OC(=O)[C@H]2[C@@H]1C(N)=O | 4.7 | -4.3 |
| COC(=O)C[C@H]1C=C[C@H](NS(=O)(=O)c2ccccc2F)[C@@H](CO)O1 | -1.2 | -4.2 |
| COc1ccc(NC(=O)Nc2ccc3c(c2)CC(=O)N([C@@H](C)CO)C[C@@H](C)[C@@H](CN(C)S(C)(=O)=O)O3)cc1 | 8.8 | 4.7 |
| C[C@@H]1CN([C@H](C)CO)C(=O)CCCn2nncc2CO[C@@H]1CN(C)Cc1ccc2c(c1)OCO2 | 7.8 | 3.0 |
| CC=Cc1ccc2n(c1=O)C[C@@H]1[C@@H](CO)[C@H](C(=O)NCCC)[C@H]2N1C(=O)c1ccncc1 (mixture of isomers) | 2.9 | 5.1 |
| C[C@H]1CN([C@@H](C)CO)C(=O)c2cc(-c3ccncc3)cnc2O[C@@H]1CN(C)C(=O)C1CCCCC1 | 19.9 | 9.6 |
| C[C@H]1CN([C@@H](C)CO)C(=O)c2cccc(NC(=O)c3nc4ccccc4s3)c2O[C@@H]1CN(C)CC1CC1 | -16.7 | -12.8 |
| COCC(=O)N1[C@@H](C#N)[C@H](c2ccc(C#Cc3ccccc3F)cc2)[C@@H]1CO | -4.5 | -13.6 |
| O=C(c1ccccc1F)N1CC(=O)N2[C@@H](CO)[C@@H](c3ccc(C#Cc4ccccc4)cc3)[C@@H]2C1 | ? | . |
| C[C@H](NC(=O)N(C)C[C@@H]1OCc2ccccc2-c2ccccc2C(=O)N([C@@H](C)CO)C[C@@H]1C)c1ccccc1 | 10.0 | -1.8 |
| Cc1ccc(S(=O)(=O)N[C@@H]2C=C[C@@H](CC(=O)NCCc3ccncc3)O[C@@H]2CO)cc1 | 4.7 | 9.1 |
| C[C@@H]1CN([C@@H](C)CO)C(=O)Cc2cc(NC(=O)Cc3cn(C)c4ccccc34)ccc2O[C@H]1CN(C)Cc1ccc(C(F)(F)F)cc1 | ? | . |
| O=C(C[C@@H]1CC[C@H]2NC[C@H](O)COC[C@@H]2O1)NC1Cc2ccccc2C1 | -6.5 | 8.6 |
| O=C(Nc1cccc(F)c1)N[C@@H]1CC[C@H](CCNS(=O)(=O)c2cccc(Cl)c2)O[C@H]1CO | -10.5 | 0.4 |
| CCCNC(=O)NC[C@H]1[C@H](c2ccc(C3=CCCCC3)cc2)[C@H](CO)N1C(C)=O | -5.5 | -10.2 |
| O=C(NC1Cc2ccccc2C1)[C@H]1[C@H](CO)[C@H]2Cn3c(ccc(C4=CCCCC4)c3=O)[C@H]2N1CC1CC1 | -22.9 | -21.2 |
| CO[C@H]1CN(C)C(=O)c2cc(NC(=O)C3CC3)ccc2OC[C@H](C)N(Cc2cc(F)ccc2F)C[C@@H]1C | -21.6 | -11.4 |
| CCCC(=O)Nc1ccc2c(c1)C(=O)N(C)[C@H]1CC[C@H](CC(=O)NCc3cccc(F)c3)O[C@H]1CO2 | 2.1 | 14.2 |
| NCC[C@H]1CC[C@@H](NC(=O)Nc2ccc(F)cc2)[C@H](CO)O1 | -3.2 | -0.5 |
| CCC(=O)N1[C@@H]2CN(C(=O)c3ccc4c(c3)OCO4)c3ccccc3[C@@H]2[C@@H]1CO | 10.7 | 17.2 |
| COCC(=O)Nc1ccc2c(c1)OC[C@H](C)N(C(=O)COC)C[C@@H](C)[C@@H](OC)CN(C)C2=O | 7.9 | 8.8 |
| O=C(Cc1ccccc1)N1CC[C@@H]2[C@H]1c1cc(C#Cc3ccccc3)ccc1N[C@@H]2CO | 1.7 | 0.8 |
| C[C@H](CO)N1C[C@H](C)[C@@H](CN(C)S(C)(=O)=O)Oc2cc(-c3cccc(F)c3)ccc2S1(=O)=O | -15.8 | -17.6 |

Filtered by structure: the entries above containing a cyano group
| Molecule | Vaccinia inh | Vaccinia inh Venus |
| --- | --- | --- |
| Cc1nc(N2[C@@H](C#N)[C@@H](c3ccccc3)[C@@H]2CO)sc1C | 9.9 | 2.3 |
| CCc1csc(N2[C@H](CO)[C@H](c3ccc(-c4cccc(F)c4)cc3)[C@@H]2C#N)n1 | -1.4 | -3.1 |
| COCC(=O)N1[C@@H](C#N)[C@H](c2ccc(C#Cc3ccccc3F)cc2)[C@@H]1CO | -4.5 | -13.6 |

(next part)
| Molecule | Vaccinia inh | Vaccinia inh Venus |
| --- | --- | --- |
| C[C@H]1CN([C@@H](C)CO)C(=O)c2cccc(NC(=O)c3nc4ccccc4s3)c2O[C@@H]1CN(C)Cc1ccc2c(c1)OCO2 | -5.2 | -2.9 |
| C[C@@H]1CN([C@@H](C)CO)C(=O)CCCn2cc(nn2)CO[C@H]1CN(C)Cc1ccc2c(c1)OCCN2C | 9.7 | 0.5 |
| COc1ccc(NC(=O)Nc2cccc3c2O[C@H](CN(C)S(=O)(=O)c2cn(C)cn2)[C@H](C)CN([C@@H](C)CO)C3=O)cc1 | -1.7 | 7.9 |
| COCC(=O)N1CC2(C1)[C@@H](c1ccccc1)[C@@H](CO)N2Cc1ccccc1OC | 8.9 | 19.5 |
| C/C=C/c1ccc2c(c1)O[C@H](CN(C)C(=O)Cc1cccnc1)[C@@H](C)CN([C@@H](C)CO)S2(=O)=O | 0.2 | 6.3 |
| CN(C)CC(=O)N[C@@H]1C=C[C@@H](CC(=O)O)O[C@@H]1CO | 4.9 | 3.6 |
| COc1ccc(NC(=O)Nc2ccc3c(c2)C(=O)N([C@H](C)CO)C[C@H](C)[C@@H](CN(C)Cc2ccncc2)O3)cc1 | 10.2 | 3.1 |
| CO[C@@H]1CC[C@H]2CCOc3c(C#N)cccc3C(=O)N(C)C[C@H](c3ccccc3)CC(=O)N(C)C[C@@H]1O2 | 15.4 | 7.9 |
| O=C(C[C@@H]1CC[C@H](NC(=O)c2ccc3c(c2)OCO3)[C@H](CO)O1)NCc1ccc(F)cc1 | 8.2 | 10.6 |
| Cc1ccccc1-c1ccc2c(c1)O[C@H](CN(C)C(=O)C1CC1)[C@H](C)CN([C@@H](C)CO)S2(=O)=O | -11.3 | -12.5 |
| COCC(=O)Nc1ccc2c(c1)C(=O)N(C)[C@@H]1CC[C@H](CC(=O)NCCc3ccncc3)O[C@@H]1CO2 | -3.3 | 4.8 |
| CC(C)CC#Cc1cnc2c(c1)C(=O)N([C@@H](C)CO)C[C@@H](C)[C@@H](CN(C)Cc1cccc(F)c1)O2 | ? | . |
| C[C@@H]1CN([C@H](C)CO)C(=O)c2cc(NC(=O)C3CCCCC3)ccc2O[C@H]1CN(C)C(=O)Nc1ccc(C(F)(F)F)cc1 | 4.5 | -1.1 |
| COc1cccc(-c2ccccc2[C@H]2[C@@H](C#N)N(C(=O)Cc3ccccc3)[C@H]2CO)c1 | -33.3 | -23.3 |
| CCC(=O)Nc1ccc2c(c1)C(=O)N(C)[C@@H]1CC[C@H](CC(=O)O)O[C@@H]1CO2 | -0.6 | -6.4 |
| C[C@H](CO)N1C[C@H](C)[C@H](CN(C)Cc2cccnc2)Oc2cc(C3=CCCC3)ccc2S1(=O)=O | -6.5 | -12.7 |
| COc1ccccc1CNC(=O)C[C@@H]1CC[C@H]2[C@@H](COC[C@@H](O)CN2Cc2cccc(-c3ccncc3)c2)O1 | -23.7 | -21.7 |
| O=C(C[C@@H]1CC[C@@H](NC(=O)Nc2ccccc2F)[C@H](CO)O1)NCc1ccc(F)cc1 | 14.3 | 10.4 |
| O=C(c1cccnc1)N1CC(=O)N2[C@H](CO)[C@H](c3ccc(-c4cccnc4)cc3)[C@H]2C1 | 15.5 | 10.9 |

Screens from PubChem BioAssay.
